NS1 inh: blocks influenza NS1 protein function; AID 2326; Potency, µM (highest dose often 46.1 µM), without a hit: at the highest dose activity, positive = more growth; 0.4% of 270,000 active; S. cerevisiae slowed by influenza A NS1, growth recovery by OD600; active means well fitted rising curve with a large enough effect; inconclusive means small, poorly fitted or top-dose-only effect; inactive means no such curve, though single readings can be large or run the other way; note: nearly all actives have a fitted effect of over 50% in size
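S. cerevisiae expressing influenza A NS1, grown in glucose, washed, then diluted 1:100 into pH 6.0 -URA galactose medium with 23 nl compound. Growth recovery read as OD600; NS1-free strain serves as control.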
LASV entry inh: inhibitors of Lassa virus binding or cell entry. Lassa virus pseudotype entry inhibition, cell reporter; control for the full effect not named in the record. Potency, µM (highest dose often 37.9 µM), without a hit: at the highest dose activity change, negative = inhibition, actives largely listed as inhibitors. 1.2% of 300,000 active; active means well fitted inhibition curve with a large enough effect; inconclusive means small, poorly fitted or top-dose-only effect, or effect the other way; inactive means flat fitted curve, though single readings scatter; tested in HEK293 cells; note: % is set by controls: 0 for no effect and ±100 for the full control effect; nearly all actives have a fitted effect of over 50% in size; luciferase read-out
RE007 growth inh: less growth of the S. pombe RE007 Vpr strain; S. pombe RE007 Vpr strain, BacTiter-Glo ATP luminescence, 24 h; control for the full effect not named in the record; Potency, µM (highest dose often 92.2 µM), for the others: top-dose activity change, negative = less growth; 0.21% of 360,000 active; active = well fitted falling curve with a large enough effect; inconclusive = small, poorly fitted or top-dose-only effect; inactive = no such curve, though single readings can be large or run the other way;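 note: % is set by controls: 0 for no effect and ±100 for the full control effect; nearly all actives have a fitted effect of over 50% in size; the assay follows cell death caused by Vpr and the record does not say whether a fall means rescue or toxicity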
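Fission yeast RE007 carrying one integrated HIV-1 vpr copy, seeded at OD 0.01 in PMG+AL medium with 23 nL pinned compound. Grown 24 h at 30 degrees; viability read by BacTiter-Glo luminescence after 5 min.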
SARS PLP yeast: blocks SARS-CoV papain-like protease in a yeast assay; 0.19% of 330,000 active; Potency, µM (doses to about 32.9 µM), inactives show at the highest dose activity, positive = growth rescue; S. cerevisiae expressing SARS-CoV PLpro, growth rescue; control for the full effect not named in the record; active means well fitted rising curve with a large enough effect; inconclusive means small, poorly fitted or top-dose-only effect; inactive means no such curve, though single readings can be large or run the other way; note: 0% is about no effect; nearly all actives have a fitted effect of over 55% in size; growth read by luminescence after 48 h
2A StopGo: lowers the luciferase signal of an FMDV 2A StopGo reporter; human cells with a luciferase reporter of 2A StopGo recoding; control for the full effect not named in the record; Potency, µM (titrated, usually from 57.9 µM), for inactives: top-dose signal change, negative = less light; 1.2% of 410,000 active; AID 1159524; active = well fitted falling curve with a large enough effect; inconclusive = small, poorly fitted or top-dose-only effect; inactive = no such curve, though single readings can be large or run the other way; tested in HEK293T cells; note: % is set by controls: 0 for no effect and ±100 for the full control effect; nearly all actives have a fitted effect of over 45% in size; luciferase light after 4 h
Cruzain noTriton: cruzain (T. cruzi) inhibition without detergent | purified cruzain, Z-FR-AMC fluorescence, no detergent | Potency, µM, inactives show max response, negative = inhibition, most hits filed as inhibitors | 2.3% of 200,000 active;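 note: plate controls were enzyme without inhibitor for no effect and buffer without enzyme for full effect; nearly all actives have a fitted effect of over 40% in size; top concentration of the series not given in the record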
Target sequence (P25779 123-467 limits assumed): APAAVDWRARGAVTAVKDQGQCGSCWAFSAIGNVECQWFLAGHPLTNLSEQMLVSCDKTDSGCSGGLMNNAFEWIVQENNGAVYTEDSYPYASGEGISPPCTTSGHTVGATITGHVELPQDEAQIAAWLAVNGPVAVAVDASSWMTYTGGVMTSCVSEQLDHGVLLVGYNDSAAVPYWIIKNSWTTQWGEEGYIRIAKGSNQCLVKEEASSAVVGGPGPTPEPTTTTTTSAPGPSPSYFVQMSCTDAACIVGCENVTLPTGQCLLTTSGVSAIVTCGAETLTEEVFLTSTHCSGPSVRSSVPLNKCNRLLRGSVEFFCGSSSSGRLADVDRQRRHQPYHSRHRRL
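Detergent-free condition (0.00005% Triton X-100) in acetate buffer pH 5.5 with DTT. 1.5 nM enzyme and compound were pre-mixed 15 min, then 2 uM Z-FR-AMC substrate added; reaction progress from fluorescence change between first and third reads (60 s).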
Cruzain inh Det: cruzain (T. cruzi) inhibition with detergent; Potency, µM, without a hit: max response, negative = inhibition, actives largely listed as inhibitors; purified cruzain, Z-FR-AMC fluorescence, 0.01% Triton; 0.43% of 200,000 active;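 note: plate controls were neutral wells for no effect and buffer without enzyme for full effect; nearly all actives have a fitted effect of over 40% in size; top concentration of the series not given in the record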
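Purified cruzain (1.5 nM final) was preincubated with compounds for 15 min at room temperature in 100 mM sodium acetate pH 5.5, 5 mM DTT, 0.01% Triton X-100. Reaction started with 2 uM Z-FR-AMC; AMC fluorescence change over 60 s gave activity.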
Marburg entry inh: Marburg virus entry inhibition. Marburg virus pseudotyped entry inhibition, cell reporter; control for the full effect not named in the record; about a third of the inactives were read at about 46 µM. Potency, µM (top dose mostly 37.8 µM), for the others: at the top dose activity change, negative = inhibition, actives largely listed as inhibitors. 1.8% of 300,000 active; active = well fitted inhibition curve with a large enough effect; inconclusive = small, poorly fitted or top-dose-only effect, or effect the other way; inactive = flat fitted curve, though single readings scatter; tested in HEK293 cells; about a fifth of its hits are not listed in these tables; note: % is set by controls: 0 for no effect and ±100 for the full control effect; luciferase read-out
* = called active by the depositor; ? = inconclusive; / = no result given; & = joins results of further samples; [ ] = dose if it differs, or a comment. Unless noted, calls come from the whole dose curve; as a rule, active = well fitted curve in the direction sought with a large enough effect; inconclusive = small, poorly fitted or top-dose-only effect, or another doubt; inactive = no such curve, though single readings can be large; an effect the other way counts as inactive or inconclusive. Potency is the fitted concentration of half-maximal effect.

Sequence of screens: NS1 inh | LASV entry inh | RE007 growth inh | SARS PLP yeast | 2A StopGo | Cruzain noTriton | Cruzain inh Det | Marburg entry inh
- O=S(=O)(c1ccccc1C(F)(F)F)N1CCN(S(=O)(=O)c2ccccc2C(F)(F)F)CC1
 : 1% | 2% | 12% | -5% | -13% | 20µM* | 3.2% | -5%
- CC(=O)OC1(C(F)(F)F)Oc2ccccc2NC1=O (stereo unspecified)
 : 2% | -8% | 2% | 1% | -13% | 1.3µM* | 0.89µM* | 8%
- COc1cc(Cl)c(C)cc1NC(c1ccccc1)c1nnc(-c2ccccc2Cl)o1 (stereo unspecified)
 : / | -11%[46.1 µM] | / | / | -1% | 16µM* | -0.8% | 4%[46.1 µM]
- O=c1cc[nH]c2c(C(F)(F)F)cccc12
 : 5% | 14% | 19% | 11% | 13% | -7% | -7.2% | 5%[46.1 µM]
- CC(C)(C)NC(=O)C(c1ccco1)N(C(=O)Cn1nnc(-c2ccc(F)cc2)n1)c1ccccc1F (stereo unspecified)
 : -35% | -27% | -13% | 4% | ? | 8% | -8.3% | ?
- O=C(CSc1ccc(-c2ccccn2)nn1)Nc1nccs1
 : / | 17% | -5% | 2% | 0% | / | / | -1%[46.1 µM]
- CS(=O)(=O)N(CC(=O)Nc1cccc(Br)c1)Cc1ccccc1
 : -5% | -26%[46.1 µM] | 22% | -2% | -16% | / | / | ?
- COc1cccc(NC(=O)N2CCC(NC(=O)C(Cc3ccccc3OC)NC(C)=O)CC2)c1 (stereo unspecified)
 : -3% | / | 20% | 9% | 7% | / | / | 5%[46.1 µM]
- N#C/C(=N\Nc1ccccc1F)C(=N)N1CCCCC1
 : -12% | 15% | -1% | -7% | 77%[activator] | -3% | -11% | ?
- COc1ccc(NC(=O)CSCC(=O)Nc2ccc(S(=O)(=O)N3CCCCC3)cc2)cc1
 : -12% | 9% | -1% | 4% | 0% | / | / | -22%
- Cc1ccc2[nH]c(C(F)(F)F)cc(=O)c2c1
 : -7% | ? | 1% | -2% | -19% | / | / | ?
- O=C1/C(=C/c2ccc(O)c([N+](=O)[O-])c2)SC(=S)N1Cc1ccccc1
 : / | 22%[46.1 µM] | 8% | -1% | ? | / | / | -22%[46.1 µM]
- O=c1c2c3nc4ccccc4nc3n(CC3CCCO3)c2ncn1CCc1ccccc1 (stereo unspecified)
 : 5% | 2% | -1% | -4% | -27% | 7% | 1.9% | 10%
- Oc1cccc(/C=N/Nc2nn3cnnc3c3ccccc23)c1
 : -3% | / | -9% | -3% | -10% | / | / | /
- O=C(Nc1nnc(CCS(=O)(=O)c2ccc3ccccc3c2)s1)c1ccc([N+](=O)[O-])cc1
 : -9% | 13% | 2% | 11% | 0% | 13µM* | -0.6% | ?
- C/C(CC(=O)Nc1ccc2c(c1)OCCO2)=N\NC(=O)c1cccc(O)c1
 : 2% | 2% | 15% | -7% | -7% | / | / | 0%[46.1 µM]
- CCN(C(=O)COC(=O)c1ccc2c(=O)n3c(nc2c1)CCC3)C1CCS(=O)(=O)C1 (stereo unspecified)
 : 4% | -11% | 1% | 4% | -6% | / | / | 0%
- CCc1nc2oc3cc(OC)ccc3c(=O)c2c(=O)n1Cc1ccccc1
 : -7% | 0% | 1% | 9% | 3% | -11% | 5.3% | -3%
- Cc1ccc(C23CC4CC(CC(C(=O)N5CCOCC5)(C4)C2)C3)cc1
 : 5% | -2% | 19% | 4% | / | ? | -3.1% | -1%
- Cc1ccc(N2CCN(c3nc4ccc(C)cc4n4nnnc34)CC2)c(C)c1
 : / | ? | / | / | -4% | -18% | 1.0% | /
- Cc1ccc2c(c1)N(C(=O)CCC(=O)NCc1ccccc1F)CC(C)O2 (stereo unspecified)
 : / | -27%[46.1 µM] | / | / | -9% | 2% | -1.1% | -2%[46.1 µM]
- Nn1c(SCC(=O)Nc2ccccc2Oc2ccccc2)nnc1C1CC1
 : / | 0% | -9% | 1% | -18% | / | / | -2%
- Cc1ccc(/C=N/NC(=O)C(O)c2ccccc2)o1 (stereo unspecified)
 : -4% | 5%[46.1 µM] | 29% | -1% | 5% | / | / | 17%[46.1 µM]
- CCN1C(=O)Cc2cc(S(=O)(=O)NCCc3ccccc3)ccc21
 : 15% | 6%[46.1 µM] | 8% | 1% | 49%[activator] | / | / | ?
- CC(=O)c1cn(CC(=O)Nc2ccc(C)cc2)c2ccccc12
 : 7% | 5% | -2% | 16% | 2% | ? | 6.0% | -20%
- O=C(NCC(c1ccc(F)cc1)N1CCOCC1)c1ccc(OCc2ccccc2)cc1 (stereo unspecified)
 : / | -25% | 6% | -55% | 4% | / | / | ?
- O=C(NCc1nc2ccccc2[nH]1)c1cccc(S(=O)(=O)N2CCCCC2)c1
 : -1% | -13% | 0% | 0% | 32%[activator] | / | / | -8%[46.1 µM]
- Cc1ccc(CNC(=O)CCS(=O)(=O)c2ccc3c(c2)NC(=O)C(C)S3)cc1 (stereo unspecified)
 : -8% | / | 8% | 0% | ? | / | / | /
- CN(c1ccccc1)c1nc(N)c([N+](=O)[O-])c(N2CCCCCC2)n1
 : -5% | 5% | -3% | -1% | -3% | / | / | ?
- O=C(Nc1ccc(F)cc1F)c1cc2ccccc2oc1=O
 : 17% | / | 14% | 12% | 26% | / | / | /
- C#CC[N+](C)(C)C(C#Cc1ccccc1)CC=C (stereo unspecified)
 : 2% | 22% | 8% | -5% | 23% | 2% | 2.9% | -4%
- COc1ccc(C(O)(C(C)C)C(CN2CCOCC2)c2ccc(Cl)cc2)cc1 (stereo unspecified)
 : -4% | / | 10% | -6% | -29% | / | / | /
- Cc1ccccc1OCC(O)CN1CCN(c2ccccn2)CC1 (stereo unspecified)
 : 7% | -1% | 4% | 1% | -18% | / | / | 1%[46.1 µM]
- COc1ccccc1NC(=O)CN1C(=O)CC(C)S(=O)(=O)c2ccccc21 (stereo unspecified)
 : -2% | 6% | 0% | ? | -17% | / | / | 7%
- Clc1cccc(CSc2nc3ccncc3[nH]2)c1
 : -1% | / | 0% | -4% | 14% | -9% | 2.1% | 4%
- O=C(CSc1nc(Nc2ccccc2)nc(N2CCOCC2)n1)N1CCCC1
 : -13% | ? | 12% | 0% | -7% | -2% | -2.6% | ?
- O=C(Nc1ccccc1N1CCCC1)c1ccc(Br)o1
 : -6%[9.22 µM] | ? | 15% | -14% | 24% | -6% | -4.0% | 3%
- CCOC(=O)c1cc(-c2ccc(F)cc2)n(CC(=O)NC2CCCCC2)c1C
 : / | ? | / | / | 5% | -6% | 1.0% | /
- Cc1ccc(C(=O)n2nc(C)c(S(=O)(=O)N3CCOCC3)c2C)cc1C
 : / | ? | / | / | -15% | 7% | -0.7% | /
- C=CCC(CC=C)(NC(=O)c1cccc(C)c1)c1ccccc1
 : -1% | ? | 3% | -11% | -10% | -11% | -4.1% | -4%
- CCc1cccc(C)c1NC(=O)Cn1c(=O)n(-c2cccc(C)c2)c(=O)c2c1c1cc(C)ccc1n2C
 : / | 0%[46.1 µM] | / | / | -12% | -5% | -0.2% | /
- O=C(Nc1ccc2oc(-c3ccncc3)nc2c1)c1ccc(Br)o1
 : -1% | / | -21% | -2% | 5% | / | / | 18%[46.1 µM]
- Cc1ccc(/C=C2\SC(N3CCCCC3)=NC2=O)cc1
 : 1% | ? | -24% | -10% | 57%[activator] | / | / | 10%
- Cc1ccc(CN(C#N)c2nc(C)cc(C)n2)cc1
 : -12% | 26% | -6% | 5% | 1% | -4% | 3.3% | -4%
- Cc1ccc(Cn2c(=O)n(-c3ccccc3)c(=O)c3ccc(C(=O)NCc4ccco4)cc32)cc1
 : 0% | -15%[46.1 µM] | 1% | 1% | 48%&49%[activator] | -24%&-12% | -1.3%&-1.6% | 4%[46.1 µM]
- Cc1cccc(N2C(=S)N=C(Nc3c(C)cccc3C)C23CCOC(C)(C)C3)c1 (stereo unspecified)
 : 6% | -9% | -2% | 1% | ? | 6% | 2.9% | 21%
- C=CCOc1nc(-c2ccccc2Cl)nc2ccccc12
 : -7% | -4% | -11% | -4% | -15% | / | / | ?
- c1cc(CSc2nnc(-c3ccc4c(c3)OCO4)o2)ccn1
 : -16% | ? | 9% | -1% | 15% | -2% | 1.3% | ?
- CCC(Cn1nnc2ccccc2c1=O)NC(=O)Nc1cccc(C)c1C (stereo unspecified)
 : / | -12%[46.1 µM] | / | / | -4% | -1% | -1.4% | 6%[46.1 µM]
- COc1ccc(CCNC(=O)C2CCN(c3nc4ccccc4nc3C(F)(F)F)CC2)cc1OC
 : / | 23%[46.1 µM] | / | / | -7% | 15% | 1.5% | /

Continuation:
Sequence of screens: NS1 inh | LASV entry inh | RE007 growth inh | SARS PLP yeast | 2A StopGo | Cruzain noTriton | Cruzain inh Det | Marburg entry inh
- COc1ccc(C(=O)N[C@H]2COC(C)(C)O[C@H]2c2ccccc2)cc1
 : 1% | 3% | 17% | -4% | 18% | -1% | -0.6% | -8%
- Cc1ccccc1Nc1c(-c2ccccn2)nc2c(C)cccn12
 : -3% | -19% | -7% | -7% | 0% | / | / | ?
- CCCCOc1cccc(C(=O)N(Cc2ccc(Br)o2)C2CCS(=O)(=O)C2)c1 (stereo unspecified)
 : / | 1%[46.1 µM] | / | / | -14% | ? | -12% | ?
- COc1ccc(OC)c(NC(=S)NCc2ccco2)c1
 : / | 5% | 5% | / | 27% | / | / | 2%
- Cc1cc(C)c(Nc2nn3c(=O)c4cc5c(cc4nc3s2)OCO5)c(C)c1
 : / | -2%[46.1 µM] | / | / | -17% | -3% | -1.0% | -13%[46.1 µM]
- Cc1cc(/C=N/Nc2nc(N3CCOCC3)nc(N3CCOCC3)n2)c(C)n1-c1ccccc1
 : / | ? | 7% | -2% | -10% | / | / | ?
- O=C(Nc1cc(-c2nc3cc(Cl)ccc3o2)ccc1Cl)c1cc2ccccc2o1
 : / | 10%[46.1 µM] | / | / | 0% | -2% | 0.9% | -3%[46.1 µM]
- Cc1c(C(=O)N/N=C/c2cccnc2)nnn1-c1nonc1N
 : 3% | 16% | 14% | 5% | -17% | / | / | 4%[46.1 µM]
- CC(C)C(=O)c1cn(CC(=O)NCC2CCCO2)c2ccccc12 (stereo unspecified)
 : -5% | 9% | 0% | ? | 2% | -11% | -2.4% | 19%

Assay outcomes deposited in PubChem by National Center for Advancing Translational Sciences (NCATS).

This is a random part of the collection; overall some 4.7% were active at least once.
